Vaccinia stage – blocks a specific stage of Vaccinia orthopoxvirus infection; Vaccinia-infected cells, mCherry/Venus stage reporter fluorescence; stronger effect = lower value; some inactives read as strong as hits; activity change (mCherry), % (concentration not given with the values); 0.01% of 89,000 active; AID 1053133;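 active = mCherry past -33% and 40 or more points under the early reporter, replicates agreeing; inconclusive = past -33% without that gap or agreement; tested in A549 cells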;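 also: scaled between vehicle wells and reference inhibitor wells; 23 nL library stock went into each well; one replicate is shown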
Vaccinia stage Venus – second read-out of Vaccinia stage, no call of its own (marks repeat the call); activity change (Venus), %; measured here: Venus reporter, other viral stage;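 negative = less Venus signal; first of two replicates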
* = called active by the depositor; ? = inconclusive; nt = not tested or not shown. An excerpt; rates above refer to the full screens.

smiles	Vaccinia stage	Vaccinia stage Venus
CNC[C@H]1Oc2ccc(N)cc2C(=O)N([C@@H](C)CO)C[C@@H]1C	-3.0	0.1
CC(=O)N[C@H]1CC[C@@H](CCNC(=O)C2CC2)O[C@@H]1CO	-0.6	2.1
C[C@H]1CN([C@@H](C)CO)S(=O)(=O)c2ccc(C#Cc3ccc(F)cc3)cc2O[C@H]1CN(C)CC1CC1	?	nt
O=C(CCN1CCCCC1)NCC[C@H]1CC[C@@H](NS(=O)(=O)c2cccc(F)c2)[C@H](CO)O1	-4.9	2.6
CN(C)C(=O)C[C@H]1CC[C@@H]2[C@H](COc3ccc(NC(=O)C4CCC4)cc3C(=O)N2C)O1	12.5	2.3
COc1ccc(CN(C)C[C@@H]2OCCCC[C@@H](C)Oc3ccc(NC(=O)Nc4ccc(C(F)(F)F)cc4)cc3C(=O)N([C@@H](C)CO)C[C@@H]2C)cc1	?	nt
CO[C@@H]1CC[C@@H]2CCOc3c(C#N)cccc3C(=O)N(C)[C@H](C)C(=O)N(C)C[C@@H]1O2	9.6	5.6
C/C=C/c1ccc([C@H]2[C@H]3CN(S(=O)(=O)c4ccccc4)CC(=O)N3[C@H]2CO)cc1	8.1	10.3
O=C(C[C@@H]1CC[C@H](NS(=O)(=O)c2cccc(F)c2)[C@H](CO)O1)N1CCCCC1	1.0	4.5
C[C@@H]1CN([C@@H](C)CO)C(=O)c2cccc(NS(C)(=O)=O)c2O[C@H]1CN(C)Cc1ccncc1	14.5	8.6
O=C(C[C@@H]1C=C[C@H](NC(=O)Nc2ccccc2F)[C@H](CO)O1)NCc1ccc(Cl)cc1	-14.2	-4.8
COc1ccc(S(=O)(=O)N(C)C[C@H]2OCCCC[C@@H](C)Oc3ccc(NC(=O)CCC(F)(F)F)cc3C(=O)N([C@@H](C)CO)C[C@@H]2C)cc1	12.7	-2.5
C[C@H](CO)N1C[C@H](C)[C@H](CN(C)S(=O)(=O)c2cn(C)cn2)Oc2ccc(NS(=O)(=O)c3ccccc3)cc2C1=O	23.9	13.9
CCC(=O)Nc1ccc2c(c1)C(=O)N(C)[C@@H]1CC[C@@H](CC(=O)N3CCc4ccccc4C3)O[C@@H]1CO2	8.0	3.6
OC[C@H]1N[C@@H](CNCC2CCC2)[C@@H]1c1ccc(C2=CCCCC2)cc1	3.7	8.8
CCOC(=O)/C=C/c1c(OC)cccc1OC	20.4	18.3
CC(C)NC(=O)Nc1ccc2c(c1)C(=O)N([C@@H](C)CO)C[C@@H](C)[C@@H](CN(C)Cc1ccc3c(c1)OCO3)O2	12.6	5.9
Cc1noc(C)c1NC(=O)Nc1ccc2c(c1)C(=O)N([C@H](C)CO)C[C@H](C)[C@@H](CN(C)C(=O)Nc1ccc3c(c1)OCO3)O2	23.7	13.1
C[C@H](CO)N1C[C@H](C)[C@@H](CN(C)C(=O)Nc2ccccc2)Oc2ccc(NC(=O)CCN3CCOCC3)cc2C1=O	25.7	16.5
COc1ccc2c3c([nH]c2c1)[C@@H](CO)N(C)CC31CCN(C(=O)c2ccccn2)CC1	10.6	2.6
CCCNC(=O)N1[C@H](CNC(C)=O)[C@@H](c2ccc(-c3ccccc3)cc2)[C@@H]1CO	-11.6	-0.6
Cc1ccc(-c2ccccc2[C@H]2[C@@H](CO)N(C(=O)Cc3cccnc3)[C@H]2C#N)cc1	-11.5	2.6
Cc1ccc(S(=O)(=O)NCC[C@H]2CC[C@H](NS(=O)(=O)c3ccccc3Cl)[C@@H](CO)O2)cc1	-25.8	-18.6
C[C@@H]1CN([C@H](C)CO)S(=O)(=O)c2ccc(C3=CCCCC3)cc2O[C@@H]1CN(C)S(=O)(=O)c1ccc(F)cc1	?	nt
C[C@@H]1CCCCO[C@H](CN(C)S(=O)(=O)c2cn(C)cn2)[C@@H](C)CN([C@H](C)CO)C(=O)c2cc(NS(=O)(=O)c3cccs3)ccc2O1	21.8	13.9
CC(C)NC(=O)Nc1ccc2c(c1)C(=O)N([C@@H](C)CO)C[C@H](C)[C@H](CN(C)S(=O)(=O)c1ccccc1)OCCCC[C@H](C)O2	-15.9	-7.8
COCC#Cc1ccc([C@H]2[C@H]3CN(C(=O)CN(C)C)CCCCN3[C@H]2CO)cc1	6.3	4.6
COc1ccc(CNC(=O)C[C@H]2CC[C@@H]3[C@@H](COc4ccc(NC(=O)C5CC5)cc4C(=O)N3C)O2)cc1	-22.7	-12.6
O=C(C1CCOCC1)N1C[C@H]2[C@@H](c3ccccc31)[C@@H](CO)N2C(=O)Nc1ccccc1F	11.9	6.5
C[C@@H]1CN([C@@H](C)CO)C(=O)c2cc(C#CCN(C)C)cnc2O[C@H]1CN(C)C(=O)c1ccc2c(c1)OCO2	-7.0	-7.6
C[C@@H]1CN([C@H](C)CO)C(=O)c2cccc(NC(=O)Nc3cccc4ccccc34)c2O[C@@H]1CN(C)S(C)(=O)=O	4.3	-2.2
CN(C)C(=O)c1cccc(-c2ccc([C@@H]3[C@@H](CO)N4CCCCN(Cc5cccnc5)C[C@@H]34)cc2)c1	22.5	6.8
OC[C@H]1[C@@H](c2ccc(C#CC3(O)CCCC3)cc2)[C@H]2CN(Cc3cncnc3)CCCCN21	20.9	9.6
O=C(Cc1ccccn1)N[C@H]1CC[C@H](CCNC(=O)c2cc(Cl)cc(Cl)c2)O[C@H]1CO	-6.1	-4.1
C[C@@H]1CN([C@H](C)CO)C(=O)c2cc(-c3ccccc3)cnc2O[C@@H]1CN(C)C(=O)c1ccccn1	0.2	8.2
N#C[C@H]1[C@@H](c2ccccc2-c2cccc(F)c2)[C@@H](CO)N1C(=O)c1cccnc1	5.1	0.1
CCC(=O)N[C@H]1C=C[C@H](CC(=O)NCc2cc(F)cc(F)c2)O[C@@H]1CO	-3.2	-3.9
C[C@@H]1CN([C@H](C)CO)S(=O)(=O)c2ccc(C#CC(C)(C)O)cc2O[C@H]1CN(C)Cc1ccc(F)cc1	-13.7	-17.1
C[C@@H]1CN([C@H](C)CO)C(=O)c2cccc(NC(=O)Nc3ccc(F)cc3)c2O[C@@H]1CN(C)C(=O)Nc1ccccc1	3.0	0.5
CCc1csc(N2[C@@H](C#N)[C@@H](c3ccc(C#Cc4ccc(F)cc4)cc3)[C@@H]2CO)n1	?	nt
O=C(C1CCC1)N1[C@@H](CO)[C@@H](c2ccccc2)C12CN(Cc1ccccc1)C2	4.4	1.1
Cn1cnc(S(=O)(=O)N2C[C@@H](O)COC[C@H]3O[C@@H](CC(=O)NCc4cccc(F)c4)CC[C@@H]32)c1	4.1	3.2
COc1ccc(-c2cnc3c(c2)C(=O)N([C@@H](C)CO)C[C@@H](C)[C@@H](CN(C)C(=O)CN(C)C)O3)cc1	9.2	-1.5
COc1ccc2c3c(n(C)c2c1)[C@H](CO)N(C(=O)c1cccnc1)CC31CCN(C(=O)c2cccnc2)CC1	-2.1	-5.0
COc1ccc(CN(C)C[C@@H]2OCCCC[C@H](C)Oc3ccc(NC(=O)CCC(F)(F)F)cc3C(=O)N([C@H](C)CO)C[C@H]2C)cc1	-24.3	-14.4
COc1ccc(NC(=O)N(C)C[C@@H]2Oc3ccc(NS(=O)(=O)c4ccc(OC)cc4)cc3C(=O)N([C@H](C)CO)C[C@@H]2C)cc1	-14.8	-6.6
C[C@@H]1CN([C@H](C)CO)C(=O)c2cc(-c3cccc(C#N)c3)cnc2O[C@H]1CN(C)C(=O)c1cnccn1	6.4	4.0
CCCNC(=O)NC[C@H]1[C@H](c2ccc(C3=CCCC3)cc2)[C@@H](CO)N1C(=O)CC	16.2	14.2
COc1ccc(NC(=O)N(C)C[C@@H]2Oc3ccc(NC(=O)CCN4CCOCC4)cc3C(=O)N([C@@H](C)CO)C[C@H]2C)cc1	9.4	14.5
CC(C)NC(=O)Nc1ccc2c(c1)C(=O)N([C@@H](C)CO)C[C@H](C)[C@H](CN(C)CC1CCCCC1)OCCCC[C@H](C)O2	-12.0	-11.6
O=C(C[C@H]1CC[C@H]2[C@@H](COC[C@H](O)CN2Cc2cccc(Cl)c2)O1)NCC1CCCCC1	-32.7	-29.3
CO[C@H](CN(C)C(=O)c1ccccc1F)[C@H](C)CN([C@H](C)CO)S(=O)(=O)c1ccccc1	28.0	11.7
COc1ccccc1C#Cc1ccc2c(c1)O[C@@H](CN(C)Cc1cncnc1)[C@@H](C)CN([C@@H](C)CO)S2(=O)=O	-12.8	-16.9
O=C(Cc1ccccn1)N[C@H]1CC[C@H](CCn2cc(-c3ccc(F)cc3)nn2)O[C@H]1CO	5.6	1.5
O=C(O)[C@H]1[C@H](CO)[C@H]2Cn3c(cccc3=O)[C@H]2N1C(=O)NC1CCCC1	-6.6	0.0
CCCC#Cc1ccc2c(c1)O[C@@H](CN(C)Cc1cccnc1)[C@@H](C)CN([C@@H](C)CO)S2(=O)=O	-28.5	-25.2
COCCNC(=O)C[C@@H]1C=C[C@@H](NC(=O)NC2CCCC2)[C@H](CO)O1	-1.7	2.3
Cn1cnc(S(=O)(=O)N2C[C@@H](O)COC[C@@H]3O[C@H](CC(=O)NC4CCCC4)CC[C@H]32)c1	1.0	3.2
CCC(=O)Nc1ccc2c(c1)C(=O)N(C)C[C@@H](OC)[C@H](C)CN(CCc1ccccc1)[C@@H](C)CO2	0.2	5.2
COc1ccc(CN(C)C[C@H]2Oc3ccc(NS(=O)(=O)c4cccs4)cc3C(=O)N([C@@H](C)CO)C[C@@H]2C)cc1	9.6	6.6

Exported with values under each structure: part of the list above
Screens in order – Vaccinia stage	Vaccinia stage Venus
COCCNC(=O)C[C@@H]1C=C[C@@H](NC(=O)NC2CCCC2)[C@H](CO)O1
    -1.7	2.3
COc1ccc(CN(C)C[C@H]2Oc3ccc(NS(=O)(=O)c4cccs4)cc3C(=O)N([C@@H](C)CO)C[C@@H]2C)cc1
    9.6	6.6
COc1ccc(NC(=O)N(C)C[C@@H]2Oc3ccc(NC(=O)CCN4CCOCC4)cc3C(=O)N([C@@H](C)CO)C[C@H]2C)cc1
    9.4	14.5

Next section.
smiles	Vaccinia stage	Vaccinia stage Venus
CCCNC(=O)C[C@H]1C[C@H]2c3cc(NC(=O)NC4CCCC4)ccc3O[C@H]2[C@@H](CO)O1	2.5	-2.0
CC(C)CC#Cc1ccc2c(c1)O[C@H](CN(C)Cc1ccc(F)cc1)[C@H](C)CN([C@H](C)CO)S2(=O)=O	?	nt
COc1ccc(NC(=O)N2C[C@@H](O)COC[C@@H]3O[C@H](CC(=O)N4CCCCC4)CC[C@H]32)cc1	22.5	2.2
C[C@@H]1CCCCO[C@@H](CN(C)C(=O)Nc2ccc(C(F)(F)F)cc2)[C@@H](C)CN([C@H](C)CO)C(=O)c2cc(NC(=O)Nc3ccc4c(c3)OCO4)ccc2O1	25.6	6.6
COc1ccc(S(=O)(=O)N2CC3(CN(C(=O)CN(C)C)[C@H](CO)c4c3c3ccc(OC)cc3n4C)C2)cc1	-2.8	-7.2
C[C@@H](O)C#Cc1ccc([C@H]2[C@H](CO)N3CCCCN(C(=O)c4ccc(F)cc4)C[C@@H]23)cc1	34.0	14.8
CCc1nc(N2[C@@H](C#N)[C@@H](c3ccccc3-c3ccc(F)cc3)[C@@H]2CO)sc1C	-17.9	-5.7
COc1ccc(CN(C)C[C@H]2OCCCC[C@@H](C)Oc3ccc(NC(=O)Nc4ccc(F)cc4)cc3C(=O)N([C@@H](C)CO)C[C@H]2C)cc1	?	nt
C[C@@H]1CN([C@@H](C)CO)C(=O)c2cccc(NS(=O)(=O)c3ccccc3)c2O[C@H]1CN(C)S(=O)(=O)c1cccs1	-4.1	-3.5
C[C@H](CO)N1C[C@H](C)[C@H](CN(C)S(=O)(=O)c2ccc(F)cc2)Oc2c(NC(=O)Nc3ccccc3)cccc2C1=O	-34.9	-32.8
O=C(C[C@@H]1C[C@H]2c3cc(NC(=O)C4CCC4)ccc3O[C@H]2[C@H](CO)O1)NC1CCCCC1	-1.0	0.4
C[C@H](O)C#Cc1ccc2c(c1)O[C@@H](CN(C)C(=O)Cc1ccccn1)[C@@H](C)CN([C@H](C)CO)S2(=O)=O	13.0	3.6
COc1ccc(NC(=O)N2C[C@@H]3[C@H](c4ccccc42)[C@H](CO)N3Cc2ccccn2)cc1	7.8	1.7
COc1ccc2c3c(n(C)c2c1)[C@@H](CO)N(Cc1cccc(F)c1)CC31CN(C)C1	-14.8	-16.6
CN1c2ccc(C#Cc3cccnc3)cc2[C@H]2[C@H](CCN2C(=O)Nc2cc(F)ccc2F)[C@@H]1CO	1.6	0.9
C[C@H](NC(=O)C[C@@H]1CC[C@@H]2[C@H](COC[C@H](O)CN2C(=O)Nc2cccc(F)c2)O1)c1ccccc1	-19.6	-11.6
CN1[C@@H]2Cn3c(ccc(-c4ccccc4)c3=O)[C@H]1[C@@H](C(=O)N1CCC(Cc3ccccc3)CC1)[C@@H]2CO	?	nt
Cc1noc(C)c1S(=O)(=O)Nc1ccc2c(c1)CC(=O)N([C@H](C)CO)C[C@@H](C)[C@H](CN(C)CC1CC1)O2	0.6	9.5
C[C@H](CO)N1C[C@H](C)[C@@H](CN(C)Cc2ccc3c(c2)OCO3)OCCCC[C@H](C)Oc2ccc(NC(=O)CCCN(C)C)cc2C1=O	14.0	16.3
Cn1cnc(S(=O)(=O)N2CCCCN3[C@H](CO)[C@@H](c4ccc(-c5cccc(F)c5)cc4)[C@H]3C2)c1	-13.9	-11.3
N#C[C@@H]1[C@H](c2ccc(C3=CCCC3)cc2)[C@H](CO)N1C(=O)NC1CCCC1	-18.3	-18.6
N#C[C@H]1[C@H](c2ccccc2-c2ccccc2)[C@@H](CO)N1C(=O)Cc1cccnc1	6.8	4.4
